Ecoli growth – E. coli growth inhibition | Escherichia coli growth, OD600, 23 h; active compounds read low | OD600 absorbance (test concentration not listed) | AID 1053175 | 330,000 compounds, 0.21% hits;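 active means OD600 absorbance below the run mean of sample wells minus 3.6 SD, in any replicate, cut at about 0.56 in these data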;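 further: stock transfer was 300 nL into about 60 µL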
HNF4A DNA FP – change in binding of human HNF4 alpha to DNA; 360,000 compounds, 0.3% hits; P41235; activity change, % at 10 µM; HNF4a-FITC DNA binding, fluorescence polarization, 1 h; in the data active means activity change above about 30%, passing the limit was not always enough;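 further: controls were the assay level and a saturating level of protein; the project sought stronger binding though the title names inhibitors; some compounds called inactive have numbers as strong as hits; positive values seem to mean higher polarization but the record does not say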
Target sequence (P41235 whole entry, looked up): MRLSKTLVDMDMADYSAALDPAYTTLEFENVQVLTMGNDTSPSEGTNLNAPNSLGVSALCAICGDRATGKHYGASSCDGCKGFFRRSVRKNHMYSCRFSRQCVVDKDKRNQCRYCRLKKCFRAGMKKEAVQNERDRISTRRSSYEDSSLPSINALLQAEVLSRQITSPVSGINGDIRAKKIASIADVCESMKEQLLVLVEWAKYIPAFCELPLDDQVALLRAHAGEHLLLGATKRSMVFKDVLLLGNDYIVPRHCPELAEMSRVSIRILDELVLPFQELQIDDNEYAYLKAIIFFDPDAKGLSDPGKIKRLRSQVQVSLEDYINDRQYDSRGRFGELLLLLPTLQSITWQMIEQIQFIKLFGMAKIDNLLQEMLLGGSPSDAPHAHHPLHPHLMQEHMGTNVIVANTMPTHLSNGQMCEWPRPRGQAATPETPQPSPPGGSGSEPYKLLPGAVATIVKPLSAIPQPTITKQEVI
MLL AF4-AF9 inh – inhibitors of human MLL-AF4/AF9 interaction | AID 651704 | 350,000 compounds, 0.47% hits | inhibition, % at 10 µM | AlphaScreen, biotin-AF4 peptide binding to FLAG-AF9;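 active means every replicate reaching a set inhibition limit, whatever the replicate mean, cut at about 25% in these data; inconclusive means mean inhibition reaches that limit but some replicates miss it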;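 further: 0% = plate neutral control median and 100% = total signal loss; the record names both 10 and 1 µM as test concentration; the first replicate is given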
Vif TR-FRET – inhibitors of Vif binding to APOBEC3G peptide, primary screen, biochemical, TR-FRET, GST-Vif 1-94, biotin-A3G peptide, dose response retest (AID 1117319); TR-FRET GST-Vif / biotin-A3G peptide binding; higher % means a stronger effect; test concentration not given here; strong numbers were not always called active; inhibition, %; hits with a dose series show IC50 in µM; 260,000 compounds, 0.57% hits;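 active means above the screen mean plus three standard deviations and confirmed in dose response; inconclusive means results disagree or hit not tested in dose response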;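 further: Vif residues 1-94 fused to GST binding biotinylated APOBEC3G peptide 110-148; 0% = full assay without inhibitor and 100% = GST in place of GST-Vif; retest series ran down from 100 µM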
Ecoli rRNA inh – inhibitors of bacterial rRNA selective over humanized ribosomes | E. coli WT GFP vs humanized-ribosome RFP mutants, fluorescence, 24 h; active compounds read low; DMSO median 0, no signal -100 | GFP signal change (wild-type ribosome), % (test concentration not listed) | 350,000 compounds, 1.6% hits | AID 720706;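 active means significant combined selectivity score with lowered wild-type GFP, culture density cut under 30%, mutant RFP and density less affected; inactive means any of these conditions unmet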; further: one replicate is shown; some compounds called inactive have numbers as strong as hits
FGF22 binding – shifts melting point of recombinant human FGF22; Q9HCT0; recombinant FGF22 thermal shift, SYPRO orange fluorescence; percent of sucrose octasulfate shift, DMSO zero; calls only at 9.99 µM; 340,000 compounds, 1.5% hits;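 active means melting point raised past a set limit in the mean and every replicate; inconclusive means no clear call; three in four hits are not shown here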
Target sequence (Q9HCT0 whole entry, looked up): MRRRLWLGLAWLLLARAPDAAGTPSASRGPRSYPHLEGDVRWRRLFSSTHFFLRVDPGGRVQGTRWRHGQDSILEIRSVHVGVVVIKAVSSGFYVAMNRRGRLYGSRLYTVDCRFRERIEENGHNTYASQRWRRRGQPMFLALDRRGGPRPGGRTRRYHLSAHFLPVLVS
ALR H2O2 inh – inhibitors of human sulfhydryl oxidase ALR; purified ALR, DTT oxidation, H2O2 HRP-luminol luminescence; AID 485317; P55789; 290,000 compounds, 3.8% hits; inhibition, % (concentration not given with the values);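 active means mean and each replicate at 75% or more; inconclusive means only one of the two met; inactive means neither met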;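 further: stock transfer was 7.5 nL into about 7.5 µL; 0% = neutral wells and 100% = wells with inactivated enzyme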
Target sequence (P55789 whole entry, looked up): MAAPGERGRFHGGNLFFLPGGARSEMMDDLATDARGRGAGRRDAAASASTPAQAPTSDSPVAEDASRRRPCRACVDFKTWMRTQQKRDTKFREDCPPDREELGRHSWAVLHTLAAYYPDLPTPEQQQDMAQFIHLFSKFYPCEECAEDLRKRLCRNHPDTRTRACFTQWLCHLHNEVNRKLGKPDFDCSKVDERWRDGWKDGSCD
Ecoli rRNA inh OD600 – second read-out of Ecoli rRNA inh, no call of its own (marks repeat the call); OD600 change, %; measured here: OD600 growth;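 optical density of the mix in the first replicate; 0 = DMSO median and -100 = no signal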
Ecoli rRNA inh RFP – recorded beside Ecoli rRNA inh, whose call it bears; RFP signal change, %; measured here: RFP humanized mutant strains;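 first replicate; 0 = DMSO median and -100 = no signal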
* marks the source's active call; other numbers are inactive results; i = inactive; ? = inconclusive; / = no result given; & = joins results of further samples. An excerpt; count on the stated rates, not on these rows.

compound	ALR H2O2 inh	Ecoli growth	Ecoli rRNA inh	Ecoli rRNA inh OD600	FGF22 binding	HNF4A DNA FP	Ecoli rRNA inh RFP	Vif TR-FRET	MLL AF4-AF9 inh
COc1cc(/C=C(\C#N)C(=O)Nc2ccc3c(c2)OCCO3)ccc1O	3	/	-24	-5	i	7.2	11	?	-14
CCOC(=O)N1CCN(c2c(N3CCN(c4cccc(C)c4C)CC3)c(=O)c2=O)CC1	/	0.77	8	6	i	-0.1	2.2	4%	-12
CC(C)Cn1c(=O)c2ccccc2n2c(CCC(=O)NCC3CCCO3)nnc12 (stereo not drawn)	-3	0.62	2	9	i	0.7	-1.9	/	-0.5
CCN(Cc1ccccc1)C(=O)COC(=O)c1c(C)nsc1NC	-5	0.64	-1	0	i	7.6	3.4	-4%	-5.6
COc1ccc(Oc2nc(Oc3ccc(OC)cc3)nc(Oc3ccc(OC)cc3)n2)cc1	4	0.72	/	/	/	-1.9	/	2%&-3%	/
COc1ccc(C#Cc2ccc([C@@H]3[C@@H](CO)N4CCCCN(C)C[C@H]34)cc2)cc1	/	/	-3	15	i	/	3.2	/	1.8
NC(=O)c1cc([N+](=O)[O-])ccc1NCc1cccnc1	-22	/	24	15	i	-1.2	0.9	-6%	-1.4
O=C(Cc1ccncc1)NCC[C@H]1CC[C@@H](NC(=O)C2CCCC2)[C@@H](CO)O1	/	/	2	0	i	/	-0.5	/	1.7
COc1cccc(N(C(=O)c2ccco2)C(C(=O)NC2CCCC2)c2ccc(N3CCOCC3)cc2)c1 (stereo not drawn)	0	0.69	/	/	i	-1.2	/	/	3.5
COC1Cc2ccccc2N(C(=O)N2CCN(CCO)CC2)c2ccccc21 (stereo not drawn)	-5	0.76	/	/	/	-2.5	/	10%	/
O=C(COC(=O)c1ccc(Br)o1)NCC(=O)Nc1ccc(F)cc1	/	0.66	7	10	i	0.6	0.4	-4%	-4.1
COc1ccc(NC(=O)CC2SC(N)=NC2=O)c([N+](=O)[O-])c1 (stereo not drawn)	-17	0.68	10	12	i	1.3	-1.9	-3%	-2.6
COc1ccc2c(c1)CC/C(=C/c1ccncc1)C2=O	-9	0.68	/	/	/	0.3	/	-2%	/
CC1(C)CC(=O)C(C(=O)/C=C/c2ccco2)C(=O)C1	14	0.62	16	12	i	-8.1	5.0	?	0.5
Cc1ccnc2nc(C(=O)NC3=NCCS3)nn12	-13	0.68	/	/	/	2.9	/	10%	/
COc1ccc2c(c1)c(C(=O)N/N=C/c1cn(C)c3ccccc13)c(C)n2C	2	/	-13	-1	i	-6.2	2.9	10%	3.5
c1ccc(-n2nnnc2Cc2nnnn2-c2ccccc2)cc1	-3	0.68	16	8	i	3.7	0.7	/	-4.7
COCC(=O)Nc1ccc2c(c1)C(=O)N(C)C[C@H](OC)[C@H](C)CN(C(C)=O)[C@@H](C)CO2	/	/	1	1	i	/	1.2	/	-1.0
CCc1nc(SCC(=O)NCc2ccc(F)cc2)c2c(=O)n(C)c(=O)n(C)c2n1	-14	0.79	14	14	i	-1.2	-4.1	-2%	7.4
CCOc1ccc(S(=O)(=O)N(CC)CC(=O)NCc2ccncc2)cc1	0	0.65	-1	1	i	5.1	-5.7	?	-4.3
COc1ccc(C)cc1NC(=O)Cc1c(C(=O)O)n(C)c2ccccc12	11	0.68	-4	-4	i	0.4	-3.1	12%	-0.4
Cc1ccc2c(c1)[C@@H]1[C@H](CO2)[C@H](c2ccccc2)[C@]2(C)C(=O)N[C@H](C)C(=O)N12	-4	/	-15	-21	i	-3.4	-4.8	/	-0.4
COc1ccc(NC(=O)CSc2nnc(-c3ccccc3C)n2N)cc1	99*	0.68	/	/	/	4.3	/	-1%	/
CNC[C@@H]1Oc2ncc(-c3ccc(OC)cc3)cc2C(=O)N([C@@H](C)CO)C[C@H]1C	/	/	3	8	i	/	0.7	/	-1.7
O=C(NNc1cccc(Cl)n1)Nc1ccccc1	-1	0.67	/	/	/	0.7	/	8%	/
Cc1ccc(S(=O)(=O)N[C@H]2CC[C@@H](CC(=O)NCCCN(C)C)O[C@@H]2CO)cc1	/	/	2	2	i	/	0.7	/	-16
COc1cccc(/C=C(\C#N)c2nc3ccc(C)cc3[nH]2)c1OCC(=O)O	49	0.72	29	20	i	4.0	5.2	/	-2.1
O=C(Oc1cccc2cccnc12)c1cccc(N2C(=O)C3C4CCC(C4)C3C2=O)c1 (stereo not drawn)	-19	0.69	-1	-16	i	/	1.8	/	5.0
CN(CC(=O)Nc1cccc(F)c1)C(=O)/C=C/c1cc(Br)ccc1OC(F)F	-2	0.68	-27	-26	i	-3.9	-5.4	8%	-1.2
CCc1nc(SCC(=O)NCC2CCCO2)c2oc3ccccc3c2n1 (stereo not drawn)	/	0.7	/	/	/	2.9	/	-2%	/
CCOC(=O)c1cc(-c2cc3ccccc3o2)nc2c1c(=O)[nH]c(=O)n2CCOC	2	0.7	/	/	/	1.3	/	-8%	/
CN(C)CC(=O)Nc1ccc2c(c1)[C@H]1C[C@@H](CC(=O)NCc3ccc(-c4ccccc4)cc3)O[C@@H](CO)[C@H]1O2	/	/	-8	-11	i	/	1.2	/	6.4
CCOC(CNC(=O)c1cccn2c(=O)c3cc(Cl)ccc3nc12)OCC	-12	0.73	/	/	/	-1.5	/	-7%	/
O=C1C2CC=CCC2C(=O)N1c1nccs1 (stereo not drawn)	/	0.72	1	4	i	3.1	1.5	-2%	-2.1
CCCCn1c(N)c(N(CCOC)C(=O)CSCc2ccc(C)cc2)c(=O)[nH]c1=O	1	0.7	6	3	i	-1.1	-1.6	-2%	-4.9
COc1ccccc1CCc1nnc(CCC(=O)N(C)Cc2cccc3ncccc23)o1	-19	0.68	-15	-21	i	-1.9	-0.5	22%	-2.0
O=C(Nc1ccccc1)c1cc2ccccc2[nH]1	-2	0.69	4	5	i	-2.9	5.3	-4%	-6.8
O=C(O)CSc1c(-c2ccccc2)c2cc(Cl)ccc2[nH]c1=O	12	0.71	-28*	-10*	i	-0.7	-7.4*	1%	9.7
CCOC(=O)c1c(S(=O)(=O)NCCCc2ccco2)c(C)n(C)c1C	4	0.7	1	0	i	4.3	3.6	7%	4.2
O=C(Nc1cccc(C(=O)N2CCCCC2)c1)c1ccc(Cl)cc1	1	0.7	16	16	i	-0.6	-1.7	/	-1.7

As entered above.
Vif TR-FRET with O=C(Nc1ccccc1)c1cc2ccccc2[nH]1 → -4%
HNF4A DNA FP with CCOC(CNC(=O)c1cccn2c(=O)c3cc(Cl)ccc3nc12)OCC → -1.5

(further entries)
compound	ALR H2O2 inh	Ecoli growth	Ecoli rRNA inh	Ecoli rRNA inh OD600	FGF22 binding	HNF4A DNA FP	Ecoli rRNA inh RFP	Vif TR-FRET	MLL AF4-AF9 inh
O=C(CSc1ccccn1)Nc1cccc(S(=O)(=O)N2CCCC2)c1	0	0.64	/	/	i	0.7	/	9%	-1.4
COc1ccc(/C=C/C(=O)O)cc1S(=O)(=O)N1CCc2ccccc21	11	0.64	-9	-8	i	-6.0	-1.6	3%	0.6
O=C(NCc1ccccc1)C1=C[C@@H](C2CC2)C[C@@H](OCc2ccc(CO)cc2)O1	-5	/	-22	-31	i	3.2	-8.2	5%	1.1&-1.2
C[C@H]1CN([C@@H](C)CO)C(=O)CCCn2nncc2CO[C@@H]1CN(C)Cc1ccccc1C(=O)O	/	/	3	7	i	/	0.3	/	-16
COc1ccc(C#Cc2ccc([C@@H]3[C@H](CO)N4CCCCN(Cc5ccccc5F)C[C@@H]34)cc2)cc1	/	/	-57	-75	i	/	-14	/	31*
COc1ccc(C2C(C(=O)NCc3ccccn3)c3cc(OC)c(OC)cc3C(=O)N2C)cc1 (stereo not drawn)	2	0.68	/	/	/	2.8	/	3%	/
CCCOc1ccccc1C(=O)N(Cc1ccco1)C1CCS(=O)(=O)C1 (stereo not drawn)	1	0.74	/	/	/	-1.0	/	-3%	/
COc1ccc(/C=C(\C#N)C(=O)NC(C)c2ccccc2)cc1O (stereo not drawn)	87*	0.71	-17	-16	i	1.2	2.8	-9%	4.9
Cc1c(NC2=C(Cl)C(=O)N(c3ccccc3)C2=O)c(=O)n(-c2ccccc2)n1C	34	0.67	/	/	/	-1.2	/	6%	/
N#Cc1c(/N=C/C=C/c2ccccc2)sc2c1CCCC2	/	/	1	1	i	-0.9	1.5	12%	7.6
CC(C)CC(CC(C)C)=NNC(=O)c1ccc2c(c1)OCO2	1	0.71	9	2	i	4.2	0.3	9%	-0.4
Cc1cccc(CN2C(=O)c3ccccc3Sc3ccc(C(=O)NCCN4CCOCC4)cc32)c1	3	0.69	-47*	-9.1*	i	0.1	-7.0*	-12%	2.4
O=C(Cn1cnc(S(=O)(=O)N2CCCC2)c1)Nc1ccc(OC(F)(F)F)cc1	-3	0.63	-3	3	i	-3.3	-4.3	/	-0.6
COc1ccc(-c2nnc(SC)nc2-c2ccc(OC)c([N+](=O)[O-])c2)cc1[N+](=O)[O-]	-23	0.69	18	15	/	12	0.2	/	3.3
CC(C)NC(=O)N(C)C[C@H]1Oc2cc(-c3cncnc3)ccc2S(=O)(=O)N([C@@H](C)CO)C[C@@H]1C	/	/	5	11	i	/	0.7	/	-0.8
O=C(Nc1cnccn1)Nc1ccccc1F	0	0.74	0	6	i	-0.9	-2.6	1%	-0.7
Cc1ccc(-c2nc3sc4c(c3c(=O)n2N)CCCC4)cc1	3	0.66	/	/	/	1.2	/	7%	/
CCCn1nc(C(=O)NCc2ccc3c(c2)OCO3)c2ccccc2c1=O	-1	0.66	-9	-21	/	0.4	-0.7	2%	-3.0
Cc1nc(SCc2cccc(F)c2)c2oc3ccccc3c2n1	-4	0.71	3	7	i	0.0	-0.2	-34%	2.0
Cc1cc(C)c(S(=O)(=O)N2CCN(S(=O)(=O)N3CCOCC3)CC2)c(C)c1	1	0.7	-1	-6	i	1.7	1.6	/	-13
Cc1cccc(C)c1NC(=S)N=Nc1c(O)n(C)c2ccc(S(=O)(=O)N3CCOCC3)cc12	0	0.74	/	/	/	-1.0	/	1%	/
Cc1nn(C)c(Cl)c1CN1CCC(CO)(CC2CCCCO2)CC1 (stereo not drawn)	-23	0.66	5	10	/	-0.5	-1.7	10%	-2.0
O=C(O)CC1(CC(=O)NCc2ccc(C(F)(F)F)cc2)CCCCC1	-3	0.64	/	/	i	-6.5	/	-10%	-1.7
c1nc(N2CCC3(CC2)OCCO3)c2[nH]cnc2n1	14	0.69	13	5	i	0.4	-3.6	2%	-1.5
CC1(C)CC(=O)C(C=Nc2ccc(NC3=C(C#N)C(=O)CC(C)(C)C3)cc2)=C(O)C1	6	0.67	17	3	i	-1.8	0.0	-3%	0.0
O=C(Cc1ccccc1)NNC(=O)c1ccccc1C(=O)O	/	0.71	7	-2	i	2.4	-4.7	-4%	-4.5
CN(C)N1C(N)=C(C#N)C(c2ccc3c(c2)OCO3)C2=C1CCCC2=O (stereo not drawn)	-10	0.68	11	9	i	-0.2	-0.5	-6%	26*
